# VDR inh: vitamin D3 receptor (human) inhibition. VDR-SRC2-3 peptide fluorescence polarization, 2 h. Potency, µM, for inactives: max response, negative = inhibition, actives largely listed as inhibitors. 400,000 tested, 0.93% active. AID 504847; active = well fitted inhibition curve with a large enough effect; inconclusive = small, poorly fitted or top-dose-only effect, or another doubt; inactive = no such curve, though single readings can be large or run the other way; also: series mostly up to about 120 µM
# Target sequence (P11473 whole entry, looked up): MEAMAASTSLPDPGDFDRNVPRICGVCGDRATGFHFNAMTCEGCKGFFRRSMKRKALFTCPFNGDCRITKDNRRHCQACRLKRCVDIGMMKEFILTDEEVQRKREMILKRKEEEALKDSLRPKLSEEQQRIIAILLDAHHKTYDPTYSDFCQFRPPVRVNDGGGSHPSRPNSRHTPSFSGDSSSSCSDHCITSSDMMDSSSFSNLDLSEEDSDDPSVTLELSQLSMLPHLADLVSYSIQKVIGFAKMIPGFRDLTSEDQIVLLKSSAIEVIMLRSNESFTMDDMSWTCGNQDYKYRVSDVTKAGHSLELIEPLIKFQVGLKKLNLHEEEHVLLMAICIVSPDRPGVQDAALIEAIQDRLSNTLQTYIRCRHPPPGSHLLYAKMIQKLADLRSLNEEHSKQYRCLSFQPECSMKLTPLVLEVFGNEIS
#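 VDR–SRC2-3 interaction, FP format. Cmpds 23 nl via pintool, brief spin, 2 h ambient incubation.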
# An asterisk follows results filed as active; ? = inconclusive; & = joins results of further samples. % is scaled to controls: 0 for no effect and ±100 for the full control effect; potency is read from the fitted curve at half-maximal effect. A portion of the library, so the mix of outcomes need not match the whole.
canonical_smiles	VDR inh
Cc1oc2ccc(O)c(CN3CCCCCC3)c2c1C(=O)Nc1cccc(C(F)(F)F)c1	12%
COCCNC(=O)C1CCCN(S(=O)(=O)c2ccc3c(c2)CC(C)N3C(=O)C2CC2)C1 (stereo not drawn)	0%
COc1cccc(-n2ccnc2SCC(=O)NCc2ccccc2)c1	1%
CC(C)(C)NC(=O)NC(=O)COC(=O)CCC1CCCC1	-4%
CCCOc1ccc(C2=CSC3=NCCN23)cc1Cl	24%
CCCCn1c(-c2ccccc2C)nc2cc3[nH]c(=O)c(C(C)C)nc3cc21	-15%
O=S(=O)(Cc1cc(NCc2ccccc2)nc(-c2ccccn2)n1)c1ccccc1	-4%
Cc1oc2nc(SCC(=O)NCCCO)nc(N)c2c1C	-16%
CN(C)/C=N/NC(=O)c1ccc(Cl)cc1	12%
Cc1ccc(S(=O)(=O)NC(C)CCc2ccccc2)cc1C(N)=O (stereo not drawn)	6%
COc1ccc(NC(=O)C(Cc2ccccc2)NS(=O)(=O)c2ccc3c(c2)CCC(=O)N3)c(OC)c1 (stereo not drawn)	-15%
COc1ccc(NC(=O)CSc2nc(-c3ccco3)cc(C(F)(F)F)n2)cc1	-13%
CN(C)S(=O)(=O)n1cnc([C@@H]2[C@H]3C(=O)OC[C@@H]3C[C@@]23N=CN(Cc2ccccc2)C3=O)c1	-14%
Cc1cc(NC(=O)CSc2nc(C)c(C)c(=O)[nH]2)no1	-5%
COCC(=O)Oc1c(Sc2ccc(C)cc2)c(C)nn1C(C)(C)C	?

# 5 entries from above, arranged by the number in VDR inh, highest first:
molecule,VDR inh
CN(C)/C=N/NC(=O)c1ccc(Cl)cc1,12%
COCCNC(=O)C1CCCN(S(=O)(=O)c2ccc3c(c2)CC(C)N3C(=O)C2CC2)C1 (stereo not drawn),0%
COc1ccc(NC(=O)CSc2nc(-c3ccco3)cc(C(F)(F)F)n2)cc1,-13%
COc1ccc(NC(=O)C(Cc2ccccc2)NS(=O)(=O)c2ccc3c(c2)CCC(=O)N3)c(OC)c1 (stereo not drawn),-15%
Cc1oc2nc(SCC(=O)NCCCO)nc(N)c2c1C,-16%

# New compounds follow:
canonical_smiles	VDR inh
CCOC(=O)c1nn(-c2ccc(Br)cc2)cc1C(=O)c1cccc2ccccc12	7%
CCOC(=O)c1cnc2c(ccc3ccccc32)c1Nc1ccccc1OCC	8%
CCOc1ccc2nc(NC(=O)CN3CCN(c4ccccn4)CC3)sc2c1	7%
CNC(=O)/C(C#N)=C/c1ccc(-c2ccc(OC)cc2[N+](=O)[O-])o1	-10%
CCOC(=O)N1CCC(NC(=O)c2sc3nc4n(c(=O)c3c2C)CCCC4)CC1	-4%
CCOc1ccccc1OCC(=O)Nc1ccc2[nH]c(=O)[nH]c2c1	5%
COCCn1c(C)cc(C(=O)CSc2cc(C)c3ccc(OC)cc3n2)c1C	6%
COc1cc(C2C(C(=O)c3ccco3)=C(O)C(=O)N2Cc2ccccc2)ccc1O (stereo not drawn)	-6%
CCOC(=O)c1ccc(NC(=O)C2CCN(S(=O)(=O)c3ccccc3)CC2)cc1	9%
O=C1CC2CS(=O)(=O)CC2N1C1CCCCC1 (stereo not drawn)	10%
CCCNC(=O)c1ccc(-n2c(-c3ccccc3)cc3c2CCC(C)C3)cc1 (stereo not drawn)	-3%
CCOC(=O)C1CCCN(C(=O)COc2ccc(S(=O)(=O)N3CCOCC3)cc2)C1 (stereo not drawn)	2%
Cc1ccc(S(=O)(=O)c2nc(-c3cccs3)oc2SC(C)c2ccccc2)cc1 (stereo not drawn)	24%
CC1CCCCN1C(=O)c1cc2ccccc2cc1O (stereo not drawn)	10%
Nc1ccc2c(c1)C(=O)N(CC1CCCO1)C2=O (stereo not drawn)	-10%
Cc1c(NC(=O)CN(C)CC(=O)Nc2ccc(F)c(F)c2F)c(=O)n(-c2ccccc2)n1C	-8%
COc1ccccc1NC(=O)C1=C(C)Nc2ncnn2C1c1ccccc1C(=O)O (stereo not drawn)	-15%
Cc1ccc(-c2nc3sc(CCNC(=O)c4ccc(C)c(C)c4)c(C)n3n2)cc1	6%
CCCN=C(C)c1c(-c2ccccc2)[nH]n(-c2nc3ccccc3s2)c1=O	28%
CCC1CCCCN1C(=S)Nc1ccc(S(=O)(=O)Nc2ncccn2)cc1 (stereo not drawn)	-13%
CCOC(=O)c1c(NC(=O)CN2CCCCC2)sc2c1CCC(C=O)=C2Cl	9%
Cc1ccc(-n2c(/C=C/c3c(C)n(C)c4ccccc34)nc3ccccc3c2=O)cc1	-7%
O=C(NCC1CCCO1)C(=O)NCC(c1ccco1)N1CCN(c2ccccc2F)CC1 (stereo not drawn)	0%
CN(C)S(=O)(=O)c1ccc(C(=O)Nc2ccccn2)cc1	8%
O=C(NCCc1ccccc1)C(=O)NCC1OCCN1S(=O)(=O)c1ccc(Cl)cc1 (stereo not drawn)	14%
O=C(Nc1nccs1)c1cncc(Br)c1	2%
Cc1cc(C)c(CNC(=O)c2cc(C3CC3)nc3c2cnn3C(C)C)c(=O)[nH]1	1%
CCCCn1c(N)c(N(CC(C)C)C(=O)c2ccc(Br)o2)c(=O)[nH]c1=O	-18%
CCC(=O)NC1(C(F)(F)F)C(=O)Nc2c1c(=O)[nH]c(=O)n2CC(C)C (stereo not drawn)	17%
Cc1ccc(C)c(NC(=O)CN(C)C(=O)c2ccc3ncsc3c2)c1	-17%
COc1ccc(CCN=C(N)NS(=O)(=O)c2ccc(OC)cc2)cc1	-2%
Cc1noc(C)c1CSc1nc2sc(C)c(C)c2c(=O)n1C1CCCC1	-16%
COC(=O)c1ccccc1NC(=O)CSc1nc2sc3c(c2c(=O)[nH]1)CCCC3	14µM*
O=C(O)C1CC(=O)N(c2ccc(F)c(F)c2)C1 (stereo not drawn)	21%
c1ccc(COC2CCCN(Cc3nc(-c4cnccn4)no3)C2)cc1 (stereo not drawn)	-4%
COc1ccc(-c2csc3nc(C(C)C)oc(=O)c23)cc1OC	13%
Cc1nnc(NCc2ccc(F)cc2)c2c1nnn2Cc1ccccc1Cl	8%
O=C(NC(=S)Nc1cccc2c(O)cccc12)c1ccccc1[N+](=O)[O-]	1%
COc1cc(NC(=O)c2[nH]c(C)c(C(C)=O)c2C)cc(OC)c1OC	-6%
O=C(O)CSc1nnnn1C1CCCCC1	71µM*
Clc1ccccc1CN1CCSCC1	-12%
Cc1ccc(S(=O)(=O)C(CNS(=O)(=O)c2cc(F)ccc2F)c2cccs2)cc1 (stereo not drawn)	9%
Cn1c(=O)oc2cc(S(=O)(=O)Nc3ccc4c(c3)OCO4)ccc21	-8%
CCCc1cc2c(=O)c(-c3cscn3)c(C(=O)OCC)oc2cc1O	-6%
Cc1cc(=O)n2[nH]c(SCc3ccccc3Cl)nc2n1	-3%
Cc1ccc(CNC(=O)C(=O)NCC2OCCN2C(=O)c2cccs2)cc1 (stereo not drawn)	12%
CCOC(=O)CS(=O)(=O)c1ccc2ccccc2c1	-5%
O=C(NC(=S)Nc1ccccc1[N+](=O)[O-])c1ccccc1Cl	-10%
O=C(NCc1nnc(SCC(=O)N2CCCC2)o1)c1ccccc1	-2%
CCOC(=O)CN1C(=O)C(Sc2n[nH]c(-c3ccc(C)cc3)n2)CCc2ccccc21 (stereo not drawn)	3%
c1ccc(CCc2nn3c(Cn4cnc5ccccc54)nnc3s2)cc1	?
c1cnc(Oc2ccc3oc4ccccc4c3c2)nc1	-5%
C=CCC[C@@H](Cc1ccc(F)cc1)C(=O)OC[C@H](C)NC(=O)[C@@H](CC=C)CC(=O)N(CCO)Cc1ccccc1	-11%
CCOC(=O)c1c(NC(=O)CN2CCN(C(=O)c3ccco3)CC2)sc(C(N)=O)c1C	-14%
Cc1ccccc1NC(=O)Cn1nnc(C(=O)NCCc2ccccc2)c1N	6%
COc1ccccc1-c1cn[nH]c1-c1ccc(O)cc1O	24%
CCOCCn1ccc2c(OCC(=O)Nc3ccccc3OC)cccc2c1=O	-5%
Cc1ccc(NC(=O)CN2C(=O)CCc3ccccc32)cc1C	-1%
CCn1c(C)c2c([n+]1CC)CC(C)(C)CC2=O	-9%
Cc1c(C)n(Cc2ccccc2)c2ccc(C(=O)O)cc12	-6%

# A different layout for some results above.
> Cc1ccc(CNC(=O)C(=O)NCC2OCCN2C(=O)c2cccs2)cc1 (stereo not drawn)
- VDR inh: 12%

> c1cnc(Oc2ccc3oc4ccccc4c3c2)nc1
- VDR inh: -5%

> O=C(NCc1nnc(SCC(=O)N2CCCC2)o1)c1ccccc1
- VDR inh: -2%

> C=CCC[C@@H](Cc1ccc(F)cc1)C(=O)OC[C@H](C)NC(=O)[C@@H](CC=C)CC(=O)N(CCO)Cc1ccccc1
- VDR inh: -11%

# The list goes on:
canonical_smiles	VDR inh
CC1(C)C(=O)C2(CCCCC2)C(=O)OC1c1cccn1-c1ccc([N+](=O)[O-])cc1 (stereo not drawn)	-2%
O=C(C1CCN(S(=O)(=O)c2ccc3ccccc3c2)CC1)N1CCN(c2ncccn2)CC1	-9%
O=C(O)/C=C/c1ccc(-c2cccc(C(F)(F)F)c2)o1	-15%
O=C(/C=C/Nc1ccccc1)c1ccc(Oc2ncccn2)cc1	-4%
O=C(Nc1ccccc1)P(=O)(O)c1ccccc1	1%
CCCN(CC(=O)Nc1cc(Cl)ccc1Cl)C(=O)c1ccc(N2CCCC2=O)cc1	-1%
COc1cccc(C(=O)NCc2ccc3c(c2)OCO3)c1	-12%
Cc1ccccc1CN1C(=O)c2ccccc2Sc2ccc(C(=O)NCCN3CCOCC3)cc21	1%
CCCCC/C=C/C1=CC(=O)C[C@H](c2ccc(Cl)cc2)C1	?
CSc1nn(CCc2ccncc2)c(=S)s1	0%
CC(C)CN(/C=N/c1sc2c(c1C#N)CCCCC2)CC(C)C	-11%
Cc1cc(C(=O)CN2C(=O)NC3(CCCCCC3)C2=O)c(C)n1C	19%
O=C(Nc1cccc(-n2cnnn2)c1)c1ccccc1Br	-4%
COc1cc(OC)cc(-c2n[nH]c(=S)n2-c2ccc3c(c2)OCO3)c1	-20%
CCC(C)C(=O)Nc1nnc(SCC(=O)Nc2ccccc2F)s1 (stereo not drawn)	-7%
FC(F)(F)c1cc(NCc2cccs2)n2ncnc2n1	5%
COC(=O)[C@@H](NC(=O)Nc1ccc2c(c1)OCCO2)C(C)C	23%
O=C(CCn1c(=O)oc2ccccc21)NCc1cccs1	16%
O=C(C1CCN(S(=O)(=O)c2ccccc2)CC1)N1CCN(Cc2ccc3c(c2)OCO3)CC1	13%
O=c1[nH]c(N2CCN(Cc3ccccc3)CC2)nc2c1CCC2	16%
CCc1ccccc1NC(=O)Cn1nc(C)c2nn(-c3ccc(Cl)cc3)c(C)c2c1=O	1%
CC(=O)Nc1ccc(C(=O)OCC(=O)c2ccc(S(=O)(=O)N3CCCCC3)cc2)cc1	-15%
COCCC(=O)N1CCCC(N2CCN(c3ccc(F)cc3)CC2)C1 (stereo not drawn)	-11%
CCCc1cc(C(=O)NCc2ccco2)no1	-6%
CC(=O)NNc1[nH]c2c(c(=O)c1[N+](=O)[O-])c(=O)n(C)c(=O)n2C	1%
O=C(CNCc1ccccc1)Nc1ccc(Oc2ccccc2)cc1	15%
O=C(Nc1ccc2c(c1)C(=O)OC2)Nc1cccc2ccccc12	7%
CCOC(=O)c1c(NC(=S)NC(=O)c2cnn(CC)c2)sc2c1CCC(C)C2 (stereo not drawn)	7%
Cc1cccnc1NC(=S)NCc1ccco1	-9%
Cc1nn(C)c(C)c1S(=O)(=O)NCCc1ccc(Cl)cc1	-1%
CCOCCn1ccc2c(OCC(=O)Nc3ccc(C(N)=O)cc3)cccc2c1=O	9%
CCCCCCn1c(SCCN2CCOCC2)nc2c1c(=O)[nH]c(=O)n2C	-15%
C=CCn1c(=N)c(C#N)cc2c(=O)n3ccccc3nc21	16%
COc1ccc(NC(=O)c2cc(C3CC3)nc3c2c(C)nn3-c2ccccc2)c(OC)c1	5%
Cc1ccc(-c2csc(/C(C#N)=C/Nc3ccc4c(c3)OCCO4)n2)cc1	-16%
Oc1ccccc1-c1cncn1Cc1ccccc1	-14%
COCCCNC(=O)c1ccc2c(c1)nc(C)n2-c1cccc(C)c1	-3%&10%
O=C(CSc1nnc2ccccn12)NC(=O)c1ccccc1Cl	29%
COc1ccc(C(=O)c2sc(Nc3ccc(NC(C)=O)cc3)nc2C)cc1	-1%
CC(C)(C)C(=O)Nc1cc2c3c(c1)CCC(=O)N3CCC2	-10%
NS(=O)(=O)c1ccc(CCNC(=O)c2ccc3nc4ccc(Cl)cc4c(=O)n3c2)cc1	-14%
Cc1ccc(N2C(=O)CC(NCC3CCCO3)C2=O)cc1 (stereo not drawn)	9%
COc1ccc(NC(=O)Cc2cccs2)c(OC)c1	-1%
O=C(Nc1nc(-c2ccc(S(=O)(=O)N3CCCCCC3)cc2)cs1)c1ccccc1	6%
CCN(c1ccccc1)S(=O)(=O)c1ccc(Cl)c(C(=O)N(CC2CCCO2)C2CCS(=O)(=O)C2)c1 (stereo not drawn)	-15%
COc1ccccc1N(C(=O)c1snc(C(N)=O)c1N)C(C(=O)NC1CCCC1)c1ccc(N(C)C)cc1 (stereo not drawn)	-2%
N#Cc1ccccc1OCC(O)CNCCNC(=O)Nc1ccccc1 (stereo not drawn)	11%
Cc1c(C(=O)Nc2cccc(N(C)S(C)(=O)=O)c2)cccc1[N+](=O)[O-]	4%
CC(=O)c1cccc(NC(=O)c2ccc3ccccc3c2)c1	-4%
O=C(Nc1cc(C(F)(F)F)ccc1-n1cncn1)C1CC1	-11%
